High-throughput results as filed in PubChem.
rRNA inh HTS = selective bacterial rRNA inhibition in E. coli | E. coli WT GFP vs humanized-ribosome RFP mutants, fluorescence, 24 h; hits give low values; DMSO median 0, no signal -100 | 350,000 tested, 1.6% active | GFP signal change (wild-type ribosome), % (concentration not given with the values);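 active = significant combined selectivity score with lowered wild-type GFP, culture density cut under 30%, mutant RFP and density less affected; inactive = any of these conditions unmet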; also: one replicate is shown; some compounds called inactive have numbers as strong as hits
FGF22 binding = binders of recombinant human FGF22 by thermal shift. SYPRO orange fluorescence; percent of sucrose octasulfate shift, DMSO zero. calls only at 9.99 µM. 340,000 tested, 1.5% active;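 active = melting point raised past a set limit in the mean and every replicate; inconclusive = no clear call; three in four hits are not shown here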
Target sequence (Q9HCT0 whole entry, looked up): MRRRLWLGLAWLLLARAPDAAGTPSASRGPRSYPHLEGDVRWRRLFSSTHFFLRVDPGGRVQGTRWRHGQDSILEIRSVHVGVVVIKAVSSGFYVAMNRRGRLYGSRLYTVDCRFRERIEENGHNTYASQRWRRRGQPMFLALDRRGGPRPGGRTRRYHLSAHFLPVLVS
MLL AF4-AF9 inh = MLL-AF4/AF9 protein interaction inhibition | inhibition, % at 10 µM | AID 651704 | P42568 | AlphaScreen, biotin-AF4 peptide binding to FLAG-AF9 | 350,000 tested, 0.47% active;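 active = every replicate reaching a set inhibition limit, whatever the replicate mean, cut at about 25% in these data; inconclusive = mean inhibition reaches that limit but some replicates miss it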;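 also: 0% = plate neutral control median and 100% = total signal loss; the record names both 10 and 1 µM as test concentration; the first replicate is given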
Target sequence (P42568 whole entry, looked up): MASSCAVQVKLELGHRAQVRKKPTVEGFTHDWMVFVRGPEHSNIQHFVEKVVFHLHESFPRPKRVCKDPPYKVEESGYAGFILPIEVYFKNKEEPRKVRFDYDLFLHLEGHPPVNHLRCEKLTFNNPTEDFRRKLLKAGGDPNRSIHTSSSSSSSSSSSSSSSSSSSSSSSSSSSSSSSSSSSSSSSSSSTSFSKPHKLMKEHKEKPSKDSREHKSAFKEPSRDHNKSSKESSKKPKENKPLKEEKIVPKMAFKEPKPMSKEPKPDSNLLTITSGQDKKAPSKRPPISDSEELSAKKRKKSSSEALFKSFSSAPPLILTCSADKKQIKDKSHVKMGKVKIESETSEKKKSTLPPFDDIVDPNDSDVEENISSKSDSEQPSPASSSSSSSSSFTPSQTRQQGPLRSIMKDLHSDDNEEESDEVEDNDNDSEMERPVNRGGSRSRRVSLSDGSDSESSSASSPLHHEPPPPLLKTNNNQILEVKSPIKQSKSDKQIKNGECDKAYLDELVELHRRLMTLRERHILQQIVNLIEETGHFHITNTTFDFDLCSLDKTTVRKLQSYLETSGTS
rRNA inh HTS OD600 = second read-out of rRNA inh HTS, no call of its own (marks repeat the call); OD600 change, %; measured here: OD600 growth;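 optical density of the mix in the first replicate; 0 = DMSO median and -100 = no signal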
rRNA inh HTS RFP = recorded beside rRNA inh HTS, whose call it bears; RFP signal change, %; measured here: RFP humanized mutant strains;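 first replicate; 0 = DMSO median and -100 = no signal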
Numbers without * were called inactive. Not all compounds are listed; the hit share may differ from the screen's.

For CC1Nc2ncnc(N3CCc4ccccc4C3)c2N(Cc2ccccc2)C1=O (stereo not given) the results were rRNA inh HTS -3, FGF22 binding inactive, MLL AF4-AF9 inh 6.0, rRNA inh HTS OD600 5 and rRNA inh HTS RFP 8.1.
`C=CCn1c(=O)c(C(=O)Nc2ncccc2C)c(O)c2ccccc21` gave rRNA inh HTS -22, FGF22 binding inactive, MLL AF4-AF9 inh 1.2, rRNA inh HTS OD600 -36 and rRNA inh HTS RFP -8.1.
Screening CCC(=O)N(C)C[C@H]1Oc2cc(-c3cccc(F)c3)ccc2S(=O)(=O)N([C@@H](C)CO)C[C@@H]1C returned rRNA inh HTS -6, FGF22 binding inactive, MLL AF4-AF9 inh 4.9, rRNA inh HTS OD600 -27 and rRNA inh HTS RFP 0.4.
For C[C@@H]1CN([C@@H](C)CO)S(=O)(=O)c2ccc(C#Cc3ccncc3)cc2O[C@@H]1CN(C)C(=O)C1CCC1 the results were rRNA inh HTS -3, FGF22 binding inactive, MLL AF4-AF9 inh -2.7, rRNA inh HTS OD600 -15 and rRNA inh HTS RFP -2.0.
For C[C@@H]1CN([C@H](C)CO)C(=O)Cc2cc(NS(C)(=O)=O)ccc2O[C@@H]1CN(C)S(=O)(=O)c1ccc(Cl)cc1 the results were rRNA inh HTS 0, FGF22 binding inactive, MLL AF4-AF9 inh -0.5, rRNA inh HTS OD600 3 and rRNA inh HTS RFP 1.4.
`COC(=O)C[C@H]1CC[C@@H]2[C@@H](COc3ccc(NS(=O)(=O)c4ccc(C)cc4)cc3C(=O)N2C)O1` gave rRNA inh HTS -3, FGF22 binding inactive, MLL AF4-AF9 inh -0.8, rRNA inh HTS OD600 1 and rRNA inh HTS RFP 2.0.
For COc1ccc([C@H]2N[C@]3(CCCN(Cc4ccc(C)cc4)C3=O)[C@H]3C(=O)N(C)C(=O)[C@@H]23)cc1 the results were rRNA inh HTS -3, FGF22 binding inactive, MLL AF4-AF9 inh 3.1, rRNA inh HTS OD600 10 and rRNA inh HTS RFP 3.0.
Screening CCC(=O)N[C@H]1CC[C@H](CC(=O)NCCN2CCCCC2)O[C@@H]1CO returned rRNA inh HTS 3, FGF22 binding inactive, MLL AF4-AF9 inh -3.8, rRNA inh HTS OD600 9 and rRNA inh HTS RFP 2.3.
`O=C(C[C@H]1C[C@@H]2c3cc(NC(=O)NC4CCCCC4)ccc3O[C@@H]2[C@@H](CO)O1)NCc1cccnc1` gave rRNA inh HTS 0, FGF22 binding inactive, MLL AF4-AF9 inh 0.3, rRNA inh HTS OD600 9 and rRNA inh HTS RFP 1.8.
`CNC[C@@H]1Oc2c(NS(=O)(=O)c3c(C)noc3C)cccc2C(=O)N([C@@H](C)CO)C[C@@H]1C` gave rRNA inh HTS 1, FGF22 binding inactive, MLL AF4-AF9 inh -18, rRNA inh HTS OD600 2 and rRNA inh HTS RFP -1.7.
Screening C[C@@H]1CN([C@@H](C)CO)C(=O)Cc2cc(NC(=O)Nc3cccc4ccccc34)ccc2O[C@H]1CN(C)Cc1ccc(C(=O)O)cc1 returned rRNA inh HTS -2, FGF22 binding inactive, MLL AF4-AF9 inh 2.7, rRNA inh HTS OD600 8 and rRNA inh HTS RFP 2.6.
For Cc1ccc(S(=O)(=O)NN=CC=CC=NNS(=O)(=O)c2ccc(C)cc2)cc1 the results were rRNA inh HTS -2, FGF22 binding inactive, MLL AF4-AF9 inh -0.7, rRNA inh HTS OD600 4 and rRNA inh HTS RFP 1.2.
Screening COc1cccc(C(=O)Nc2ccc3c(c2)OC[C@@H](C)NC[C@H](C)[C@@H](OC)CN(C)C3=O)c1 returned rRNA inh HTS -3, FGF22 binding inactive, MLL AF4-AF9 inh -1.9, rRNA inh HTS OD600 -10 and rRNA inh HTS RFP -1.3.
`Cn1c(=O)c2c(-c3ccccc3)n(-c3cc(C(=O)O)ccc3O)cc2n(C)c1=O` gave rRNA inh HTS 4, FGF22 binding inactive, MLL AF4-AF9 inh 0.8, rRNA inh HTS OD600 8 and rRNA inh HTS RFP -2.7.
Screening O=C(OCc1cn([C@@H]2CN(C(=O)C3CCCCC3)[C@@H](c3ccccc3)C[C@H]2O)nn1)c1ccccc1 returned rRNA inh HTS 4, FGF22 binding inactive, MLL AF4-AF9 inh 0.4, rRNA inh HTS OD600 2 and rRNA inh HTS RFP 8.8.
Fc1cccc(Cc2c(-c3ccccc3)nc3c4ccccc4ccn23)c1 was read as rRNA inh HTS 37, FGF22 binding inactive, MLL AF4-AF9 inh -0.5, rRNA inh HTS OD600 22 and rRNA inh HTS RFP 50.
For Cc1noc(C)c1NC(=O)N(C)C[C@H]1OCCCC[C@@H](C)Oc2ccc(NS(=O)(=O)c3cccs3)cc2C(=O)N([C@@H](C)CO)C[C@H]1C the results were rRNA inh HTS -1, FGF22 binding inactive, MLL AF4-AF9 inh 0.8, rRNA inh HTS OD600 -8 and rRNA inh HTS RFP -1.1.
`Cc1noc(C)c1NC(=O)N(C)C[C@@H]1Oc2c(NS(=O)(=O)c3cn(C)cn3)cccc2C(=O)N([C@@H](C)CO)C[C@H]1C` gave rRNA inh HTS 1, FGF22 binding inactive, MLL AF4-AF9 inh -3.7, rRNA inh HTS OD600 4 and rRNA inh HTS RFP -0.5.
COc1ccc2c3c(n(C)c2c1)[C@H](CO)N(Cc1ccccc1F)CC31CN(C(=O)C2CCOCC2)C1 was read as rRNA inh HTS 2, FGF22 binding inactive, MLL AF4-AF9 inh -4.0, rRNA inh HTS OD600 12 and rRNA inh HTS RFP 0.1.
`CCCNC(=O)C[C@H]1CC[C@@H]2[C@H](COC[C@@H](O)CN2Cc2ccncc2)O1` gave rRNA inh HTS 1, FGF22 binding inactive, MLL AF4-AF9 inh -6.0, rRNA inh HTS OD600 17 and rRNA inh HTS RFP 0.2.
CC1(C(=O)NS(=O)(=O)c2ccccc2Cl)CCN1C(=O)c1cccc2ccccc12 (stereo not given) was read as rRNA inh HTS 7, FGF22 binding inactive, MLL AF4-AF9 inh -4.9, rRNA inh HTS OD600 15 and rRNA inh HTS RFP -0.6.
For O=C(CSc1nc(-c2ccccc2)c(-c2ccccc2)o1)N1CCCCC1 the results were rRNA inh HTS -10, FGF22 binding inactive, MLL AF4-AF9 inh 0.6, rRNA inh HTS OD600 -23 and rRNA inh HTS RFP -2.5.
`C[C@@H]1CN([C@@H](C)CO)C(=O)c2cc(C#CCc3ccccc3)cnc2O[C@@H]1CN(C)CC1CC1` gave rRNA inh HTS 0, FGF22 binding inactive, MLL AF4-AF9 inh 3.7, rRNA inh HTS OD600 14 and rRNA inh HTS RFP 4.7.
`Cc1noc(C)c1S(=O)(=O)Nc1ccc2c(c1)C(=O)N([C@H](C)CO)C[C@H](C)[C@H](CN(C)S(=O)(=O)c1ccccc1)O2` gave rRNA inh HTS 0, FGF22 binding inactive, MLL AF4-AF9 inh -0.4, rRNA inh HTS OD600 -9 and rRNA inh HTS RFP 2.2.
N#C[C@@H]1[C@H](c2ccc(C3=CCCC3)cc2)[C@H](CO)N1C(=O)C1CCC1 was read as rRNA inh HTS 5, FGF22 binding inactive, MLL AF4-AF9 inh -2.0, rRNA inh HTS OD600 2 and rRNA inh HTS RFP -0.1.
For C[C@H]1CN([C@@H](C)CO)C(=O)Cc2cc(NS(C)(=O)=O)ccc2O[C@@H]1CN(C)Cc1ccncc1 the results were rRNA inh HTS 6, FGF22 binding inactive, MLL AF4-AF9 inh -1.5, rRNA inh HTS OD600 9 and rRNA inh HTS RFP -2.1.
For CCCCNC(=O)COC(=O)c1c2c(nc3ccccc13)/C(=C\c1cccs1)CC2 the results were rRNA inh HTS 18, FGF22 binding inactive, MLL AF4-AF9 inh -8.8, rRNA inh HTS OD600 20 and rRNA inh HTS RFP 9.9.
`COc1cccc(C(=O)N2CCC[C@@H]2C(=O)N2CCC[C@H]2C(=O)NCc2ccncc2)c1` gave rRNA inh HTS 6, FGF22 binding inactive, MLL AF4-AF9 inh 1.0, rRNA inh HTS OD600 20 and rRNA inh HTS RFP -1.1.
Nc1ccc2c(c1)C(=O)c1ccc(N)cc1-2 was read as rRNA inh HTS -15, FGF22 binding inactive, MLL AF4-AF9 inh 11, rRNA inh HTS OD600 -36 and rRNA inh HTS RFP -5.9.
Cc1ccc2nc(SCC(=O)N3CCCc4ccccc43)nc(=O)n2c1 was read as rRNA inh HTS -1, FGF22 binding inactive, MLL AF4-AF9 inh inconclusive, rRNA inh HTS OD600 2 and rRNA inh HTS RFP -2.6.
Screening Cc1cnc(C)c(Nc2nc(C(N)Cc3ccccc3)cs2)n1 (stereo not given) returned rRNA inh HTS 5, FGF22 binding inactive, MLL AF4-AF9 inh 11, rRNA inh HTS OD600 -1 and rRNA inh HTS RFP 2.4.
`O=C(C[C@H]1C=C[C@@H](NC(=O)c2cccc(F)c2)[C@@H](CO)O1)NCc1ccc(Oc2ccccc2)cc1` gave rRNA inh HTS -4, FGF22 binding inactive, MLL AF4-AF9 inh -5.5, rRNA inh HTS OD600 -32 and rRNA inh HTS RFP 4.4.
Screening C[C@@H]1CCCCO[C@H](CN(C)C(=O)Cc2ccccc2)[C@@H](C)CN([C@H](C)CO)C(=O)c2cc(NC(=O)Nc3ccc(C(F)(F)F)cc3)ccc2O1 returned rRNA inh HTS 1, FGF22 binding inactive, MLL AF4-AF9 inh -2.5, rRNA inh HTS OD600 2 and rRNA inh HTS RFP -2.1.
Screening CCC(=O)N1[C@@H](CO)[C@@H](c2ccccc2)C12CN(C(=O)Cc1ccccc1)C2 returned rRNA inh HTS 2, FGF22 binding inactive, MLL AF4-AF9 inh -1.1, rRNA inh HTS OD600 4 and rRNA inh HTS RFP -0.8.
`O=[N+]([O-])c1cc(S(=O)(=O)N2CCCCCC2)ccc1Cl` gave rRNA inh HTS 1, FGF22 binding inactive, MLL AF4-AF9 inh 2.8, rRNA inh HTS OD600 -4 and rRNA inh HTS RFP -2.7.
`CCOC(=O)C1=CC[C@@H](c2ccc(F)cc2)N(S(=O)(=O)c2ccc(C)cc2)[C@H]1c1ccccc1` gave rRNA inh HTS 6, FGF22 binding inactive, MLL AF4-AF9 inh -6.1, rRNA inh HTS OD600 16 and rRNA inh HTS RFP -3.1.

Fetched by structure from the list above, two records:
For CC1Nc2ncnc(N3CCc4ccccc4C3)c2N(Cc2ccccc2)C1=O (stereo not given) the results were rRNA inh HTS -3, FGF22 binding inactive, MLL AF4-AF9 inh 6.0, rRNA inh HTS OD600 5 and rRNA inh HTS RFP 8.1.
`O=[N+]([O-])c1cc(S(=O)(=O)N2CCCCCC2)ccc1Cl` gave rRNA inh HTS 1, FGF22 binding inactive, MLL AF4-AF9 inh 2.8, rRNA inh HTS OD600 -4 and rRNA inh HTS RFP -2.7.

Next part:
For C/C=C/c1ccc([C@@H]2[C@@H](CNC(=O)c3ccncc3)N(C(=O)CC)[C@H]2CO)cc1 the results were rRNA inh HTS 1, FGF22 binding inactive, MLL AF4-AF9 inh 1.6, rRNA inh HTS OD600 1 and rRNA inh HTS RFP -4.6.
Screening CO[C@@H]1CN(C)C(=O)c2cc(NS(C)(=O)=O)ccc2OC[C@@H](C)NC[C@H]1C returned rRNA inh HTS 1, FGF22 binding inactive, MLL AF4-AF9 inh -1.2, rRNA inh HTS OD600 -1 and rRNA inh HTS RFP 0.1.
C[C@H]1CCCCO[C@H](CN(C)S(=O)(=O)c2ccc(Cl)cc2)[C@@H](C)CN([C@@H](C)CO)C(=O)c2cc(NS(=O)(=O)c3cn(C)cn3)ccc2O1 was read as rRNA inh HTS -5, FGF22 binding inactive, MLL AF4-AF9 inh -2.3, rRNA inh HTS OD600 -5 and rRNA inh HTS RFP 3.8.
For CCCn1c(CN2CCN(C(=O)c3ccco3)CC2)nc2cc(S(=O)(=O)N(C)C)ccc21 the results were rRNA inh HTS 4, FGF22 binding inactive, MLL AF4-AF9 inh -3.2, rRNA inh HTS OD600 10 and rRNA inh HTS RFP 1.0.
COc1ccc(S(=O)(=O)Nc2ccc3c(c2)C(=O)N([C@@H](C)CO)C[C@H](C)[C@@H](CN(C)C(=O)c2ccncc2)OCCCC[C@@H](C)O3)cc1 was read as rRNA inh HTS 0, FGF22 binding inactive, MLL AF4-AF9 inh -1.2, rRNA inh HTS OD600 -6 and rRNA inh HTS RFP -0.7.
`CN1[C@@H]2Cn3c(cccc3=O)[C@H]1[C@@H](C(=O)NCC1CCCCC1)[C@@H]2CO` gave rRNA inh HTS 7, FGF22 binding inactive, MLL AF4-AF9 inh -1.6, rRNA inh HTS OD600 11 and rRNA inh HTS RFP -1.1.
Screening CN(C)Cc1cn(CC[C@@H]2CC[C@@H](NS(=O)(=O)c3ccccc3)[C@@H](CO)O2)nn1 returned rRNA inh HTS 2, FGF22 binding inactive, MLL AF4-AF9 inh -2.9, rRNA inh HTS OD600 3 and rRNA inh HTS RFP -2.1.

Filtered by structure: the compounds so far containing a thiophene ring, fused or not
For Cc1noc(C)c1NC(=O)N(C)C[C@H]1OCCCC[C@@H](C)Oc2ccc(NS(=O)(=O)c3cccs3)cc2C(=O)N([C@@H](C)CO)C[C@H]1C the results were rRNA inh HTS -1, FGF22 binding inactive, MLL AF4-AF9 inh 0.8, rRNA inh HTS OD600 -8 and rRNA inh HTS RFP -1.1.
For CCCCNC(=O)COC(=O)c1c2c(nc3ccccc13)/C(=C\c1cccs1)CC2 the results were rRNA inh HTS 18, FGF22 binding inactive, MLL AF4-AF9 inh -8.8, rRNA inh HTS OD600 20 and rRNA inh HTS RFP 9.9.
